# Source: PubChem
# eIF4H FP inh: inhibitors of RNA binding by human eIF4H. inhibition, % at 35 µM. eIF4H fluorescence polarization binding assay. Q15056. actives 0.94% (n = 290,000);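 note: calls also rest on retests at 20 µM and on dose response follow-up; 0% = protein and probe with vehicle and 100% = probe without protein; strong numbers were not always called active; many hits fall short of the cut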
# PABP FP inh: PABP-poly(A) binding inhibition. actives 1% (n = 290,000). P11940. PABP-poly(A) RNA binding, fluorescence polarization. inhibition, % at 35 µM;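 note: calls also rest on retests at 20 µM and on dose response follow-up; controls were probe without protein and protein plus probe with vehicle; some compounds called inactive have numbers as strong as hits; many hits fall short of the cut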
# Target sequence (P11940 whole entry, looked up): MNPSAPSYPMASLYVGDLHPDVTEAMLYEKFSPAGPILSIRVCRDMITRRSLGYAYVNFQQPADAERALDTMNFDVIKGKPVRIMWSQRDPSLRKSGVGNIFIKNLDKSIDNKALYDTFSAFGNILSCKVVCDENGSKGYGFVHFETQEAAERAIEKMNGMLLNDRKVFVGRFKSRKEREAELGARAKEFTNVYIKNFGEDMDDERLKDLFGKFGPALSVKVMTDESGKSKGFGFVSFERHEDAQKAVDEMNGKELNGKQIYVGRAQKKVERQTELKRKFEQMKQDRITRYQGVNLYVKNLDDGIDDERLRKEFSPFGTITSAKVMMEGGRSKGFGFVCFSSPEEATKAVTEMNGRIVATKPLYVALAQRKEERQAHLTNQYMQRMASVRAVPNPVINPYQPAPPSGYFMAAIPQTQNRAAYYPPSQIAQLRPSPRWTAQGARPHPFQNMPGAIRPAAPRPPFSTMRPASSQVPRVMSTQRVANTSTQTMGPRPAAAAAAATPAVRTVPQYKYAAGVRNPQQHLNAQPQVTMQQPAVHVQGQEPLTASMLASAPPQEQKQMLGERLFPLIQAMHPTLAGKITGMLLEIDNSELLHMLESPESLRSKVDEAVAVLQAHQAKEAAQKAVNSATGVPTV
# An asterisk follows results filed as active; ? = inconclusive.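 Rule for the calls: active = 50% or more with normal probe brightness, or confirmed in later tests; inconclusive = above 50% with abnormal brightness, or retests that disagree; inactive = below 50% or failed in later tests; about a fifth of its hits are not listed in these tables.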 The list is partial, so the mix of outcomes need not match the whole.
1. Nc1nc(-c2cccnc2)nn1C(=O)c1ccco1
2. CCn1c(SCC(=O)Nc2nc3c(s2)CCCC3)nc2c1c(=O)n(C)c(=O)n2C
3. COc1cc(-c2nc(-c3ccc(-c4ccccc4)nc3OC)no2)cc(OC)c1OC
4. O=C(c1ccncc1)N1C2C=CC(C2)C1(C(F)(F)F)C(F)(F)F (stereo unspecified)
5. CC(C)[C@@H]1NC(=O)c2cc([N+](=O)[O-])cc(I)c2NCC[C@@H](C(N)=O)NC(=O)[C@H](CO)NC1=O
6. CCN(CC)CCCN1C(=O)C(O)=C(C(=O)c2ccco2)C1c1cc(OC)ccc1OC (stereo unspecified)
compound no. | 1 | 2 | 3 | 4 | 5 | 6
eIF4H FP inh | 0 | 11 | -5 | 0 | 7 | -5
PABP FP inh | -11 | -9 | 0 | 6 | 28 | -7

7. CCCn1cnc2c(c1=O)c1nc3ccccc3nc1n2CCC1=CCCCC1
8. COc1ccc2cc(CN(CC3COCCO3)S(=O)(=O)c3c(C)cc(C)cc3C)c(=O)[nH]c2c1 (stereo unspecified)
9. CC1(C)CN=C(N2CCN(C3=NCC(C)(C)S3)CC2)S1
10. CC(=O)Nc1ccc(S(=O)(=O)Nc2ccc3c(c2)C(=O)OC3)cc1
11. Cc1cccn2c(=O)c(C=Nc3c(C)n(C)n(-c4ccccc4)c3=O)c(N3CCCC3)nc12
12. COc1ccccc1NC(=O)C1=C(C)NC(SCC(=O)c2ccc(C)cc2)=C(C#N)C1c1ccco1 (stereo unspecified)
compound no. | 7 | 8 | 9 | 10 | 11 | 12
eIF4H FP inh | -5 | -2 | 12 | 4 | -4 | -2
PABP FP inh | -2 | 2 | 4 | -16 | -2 | -11

# Compound profiles (already shown). Order of screens: eIF4H FP inh | PABP FP inh
# COc1ccc2cc(CN(CC3COCCO3)S(=O)(=O)c3c(C)cc(C)cc3C)c(=O)[nH]c2c1 (stereo unspecified) across the screens: -2 | 2
# CC1(C)CN=C(N2CCN(C3=NCC(C)(C)S3)CC2)S1 across the screens: 12 | 4
# CCCn1cnc2c(c1=O)c1nc3ccccc3nc1n2CCC1=CCCCC1 across the screens: -5 | -2
# CC(=O)Nc1ccc(S(=O)(=O)Nc2ccc3c(c2)C(=O)OC3)cc1 across the screens: 4 | -16
# Cc1cccn2c(=O)c(C=Nc3c(C)n(C)n(-c4ccccc4)c3=O)c(N3CCCC3)nc12 across the screens: -4 | -2

# Next section
13. CC12CN3CC(C)(CN(C1)C31C(=O)N(Cc3ccccc3)c3ccccc31)C2=O (stereo unspecified)
14. CCn1cc(C(=O)N/N=C(/C)c2ccc(F)cc2)c(=O)c2cc(F)c(N3CCCC3)cc21
15. O=C(Nc1ccc(Cl)cc1)/C(=C/c1ccc([N+](=O)[O-])cc1)c1nc2ccccc2s1
16. Cn1c(=O)c2c(nc(SCC(=O)N3CCc4ccccc43)n2Cc2ccccc2)n(C)c1=O
17. O=C(Cc1ccccc1)N/N=C/c1ccccc1F
18. CC(C)(C)C(=O)/C(C#N)=c1\s/c(=C\c2ccncc2)c(=O)n1CCCN1CCOCC1
compound no. | 13 | 14 | 15 | 16 | 17 | 18
eIF4H FP inh | -10 | -6 | 0 | 2 | 0 | 7
PABP FP inh | -6 | -5 | 6 | 4 | 4 | 10

19. Cc1ccc(S(=O)(=O)C(C#N)c2nc3ccccc3nc2N2CCCCC2)cc1 (stereo unspecified)
20. Cc1ccc2nc3c(cc(C(=O)NCc4cccnc4)c(=N)n3C(C)C)c(=O)n2c1
21. Cc1ccc2c(C)nc(NC3=NCN(CCc4ccccc4)CN3)nc2c1
22. COc1ccc(C2C(C(C)=O)=C(O)C(=O)N2CCN(C)C)cc1OC (stereo unspecified)
23. COc1cc2[nH]c(=S)nc(NC3CCCC3)c2cc1OC
24. COC(=O)c1ccc(/C=N/Nc2nc(-c3ccc(Cl)cc3Cl)cs2)cc1
compound no. | 19 | 20 | 21 | 22 | 23 | 24
eIF4H FP inh | ? | 9 | 4 | -10 | 3 | 3
PABP FP inh | ? | 15 | 9 | 4 | -7 | -8

25. CC(=O)c1ccc(N2C(=O)C3C(C2=O)C(C(=O)c2ccc(Cl)cc2)N2CCCC32)cc1 (stereo unspecified)
26. Cc1nc(SCc2nnc(-c3ccc(Cl)cc3)o2)c2c3c(sc2n1)CCC3
27. CCn1c(-c2ccc(F)cc2)cnc1SCC(=O)N1CCCCC1C (stereo unspecified)
28. Cc1cccc(CSc2nc3ccncc3n2CC(=O)Nc2ccc(C)c(C)c2)c1
29. O=c1c2c3nc4ccccc4nc3n(-c3cccc(F)c3)c2ncn1Cc1ccc2c(c1)OCO2
30. CC1CCc2c(sc3ncnc(SCC(=O)N4CCN(C(=O)c5ccco5)CC4)c23)C1 (stereo unspecified)
compound no. | 25 | 26 | 27 | 28 | 29 | 30
eIF4H FP inh | ? | -6 | -8 | 6 | 2 | -10
PABP FP inh | ? | 0 | -4 | -3 | 10 | 4

31. CCCn1c(=NC(=O)c2ccc3c(c2)OCO3)c(C#N)cc2c(=O)n3cccc(C)c3nc21
32. Cc1ccc(C)c2[nH]c(=O)c(CCNC(=O)C(C)C)cc12
33. Cc1ccc(NC(=O)c2snc3c(=O)[nH]cnc23)cc1C
34. Cc1[nH]c(C)c(C(=O)O)c1CNC1CCCCC1C (stereo unspecified)
35. CCOc1ccc2nc(NC3=NCN(Cc4ccco4)CN3)nc(C)c2c1
36. Cc1cc2nc(NC3=NCN(CCN4CCOCC4)CN3)nc(C)c2cc1C
compound no. | 31 | 32 | 33 | 34 | 35 | 36
eIF4H FP inh | 9 | -3 | -1 | -7 | -4 | 4
PABP FP inh | 3 | 0 | 5 | 1 | -1 | 8

37. COCCN1CN=C(Nc2nc(C)c3ccc(C)cc3n2)NC1
38. Cn1c(=O)[nH]c(=O)c2c1nc(N1CCCC1)n2CCSc1nc2ccccc2[nH]1
39. CCCCC(=O)Nc1sc2c(c1-c1nc3ccccc3s1)CCN(C(C)=O)C2
40. Cc1ccc(S(=O)(=O)c2cc3c(=O)n4cccc(C)c4nc3n(Cc3ccco3)c2=N)cc1C
41. COc1ccc(-c2nnc3ccc(SCC(=O)Nc4cc(C)on4)nn23)cc1
42. CCc1cc2c(=O)c(-c3cscn3)coc2cc1OC
compound no. | 37 | 38 | 39 | 40 | 41 | 42
eIF4H FP inh | -5 | 3 | 3 | 24 | -3 | -7
PABP FP inh | -10 | 5 | -16 | 3 | -6 | -1

# Individual results from the entries so far.
# Value of entry 41 in eIF4H FP inh: -3
# Value of entry 40 in eIF4H FP inh: 24
# Value of entry 42 in eIF4H FP inh: -7

# The results go on.
43. CCOc1ccccc1CNC(=O)C1CCCN(c2nc3ccccc3o2)C1 (stereo unspecified)
44. Cc1ccc(S(=O)(=O)c2cc3c(=O)n4cccc(C)c4nc3n(CC3CCCO3)c2=N)cc1 (stereo unspecified)
45. COc1ccc(-c2nnc3sc(-c4ccc(Br)o4)nn23)cc1OC
46. CN(C)CCN(C)Cc1ccc2c(c1)Cc1ccccc1-2
47. CCN(CC)CCCN1C(=O)C(O)=C(C(=O)c2ccc(C)o2)C1c1cccs1 (stereo unspecified)
48. COc1ccc2c(c1)c1ncnc(N3CCN(Cc4ccc5c(c4)OCO5)CC3)c1n2C
compound no. | 43 | 44 | 45 | 46 | 47 | 48
eIF4H FP inh | -1 | 3 | -4 | -7 | -1 | -1
PABP FP inh | -6 | -13 | 10 | 2 | 5 | -1

49. CCCn1c(=O)c(C(=O)Nc2cnccn2)c(O)c2ccccc21
50. O=C(O)CN1CCOCCOCCN(CC(=O)O)CCOCCOCC1
51. COC(=O)c1c(N)n(-c2ccc(N3CCOCC3)cc2)c2nc3ccccc3nc12
52. COc1ccccc1-c1nn2c(-c3ccccc3Cl)nnc2s1
53. O=C(C1=C[C@H](c2ccccc2)C[C@H](OCc2ccc(CO)cc2)O1)N1CCCCCCC1
54. Cc1cccc(NC(=O)C2CCCN2S(=O)(=O)c2cccc3cccnc23)c1 (stereo unspecified)
compound no. | 49 | 50 | 51 | 52 | 53 | 54
eIF4H FP inh | 0 | 1 | 1 | -3 | 5 | 4
PABP FP inh | 9 | -7 | 4 | -4 | 17 | -9

55. Cc1ccc(-c2nc3ccccc3n3c(C)nnc23)cc1
56. CC(C)c1ccc(NC(=O)CSc2nc3c(c(=O)[nH]2)CCC3)cc1
57. Cc1ccc(S(=O)(=O)NCCC(=O)N2CCCCC2)cc1
58. Cc1cc(Oc2ccccc2)nc2ccc(O)cc12
59. Cn1c(N2CCN(C(=O)C34CC5CC(CC(C5)C3)C4)CC2)nc2ccccc21
60. NC(=O)C(=CNc1nc(-c2ccc(Cl)c(Cl)c2)cs1)C(N)=O
compound no. | 55 | 56 | 57 | 58 | 59 | 60
eIF4H FP inh | -3 | -9 | -6 | -9 | 3 | 49
PABP FP inh | 15 | 18 | -13 | -3 | 0 | 26

61. Cc1cc(C(=O)CN2C(=O)NC3(CCCc4ccccc43)C2=O)c(C)n1Cc1ccco1 (stereo unspecified)
62. CCCCn1c(=S)[nH]c2c(oc3ccc(Cl)cc32)c1=O
63. Cc1ccc2nc(NC3=NCN(C4CCCCC4)CN3)nc(C)c2c1
64. CO[C@H]1C[C@@H]2CC[C@@H](C)[C@@](O)(O2)C(=O)C(=O)N2CCCC[C@H]2C(=O)O[C@H]([C@H](C)C[C@@H]2CC[C@@H](O)[C@H](OC)C2)CC(=O)[C@H](C)C=C(C)[C@@H](O)[C@@H](OC)C(=O)[C@H](C)C[C@H](C)C=CC=CC=C1C
65. COC(=O)[C@@H](NC(=O)O[C@H]1C(=O)c2ccc(OC)cc2O[C@@H]1c1ccc2c(c1)OCO2)C(C)C
66. COc1ccc(-c2nc(-c3cccc(C)c3)nc(Cl)c2C#N)cc1
compound no. | 61 | 62 | 63 | 64 | 65 | 66
eIF4H FP inh | 19 | 3 | -8 | -2 | 10 | -11
PABP FP inh | -8 | -8 | -15 | 3 | -6 | 2

67. C[C@@H](C(=O)Nc1ccc2ccccc2c1)[C@H]1C[C@]1(C)[C@H](NP(=O)(c1ccccc1)c1ccccc1)c1ccccc1
68. N#Cc1c(-c2ccccc2)cc(-c2ccco2)c(C#N)c1N
69. COc1ccc(-c2[nH]ncc2CN(Cc2nccn2C)C(C)C)cc1F
70. COc1cc(C2c3c(oc4ccc(C)cc4c3=O)C(=O)N2c2cc(C)ccn2)cc(OC)c1OC (stereo unspecified)
71. O=C(CN1CCN(CCN2C(=O)c3cccc4cccc(c34)C2=O)CC1)c1ccc(Cl)cc1
72. Cc1cccn2c(=O)c3cc(C#N)c(=O)n(CC4CCCO4)c3nc12 (stereo unspecified)
compound no. | 67 | 68 | 69 | 70 | 71 | 72
eIF4H FP inh | -3 | ? | -9 | 0 | 1 | 6
PABP FP inh | 8 | ? | 2 | -4 | 12 | 8

73. COc1cccc(C(=O)NCC2CCCO2)c1 (stereo unspecified)
74. CCc1ccc(Nc2n[n+](C)c(-c3ccc(C(=O)O)cc3)s2)cc1
75. Cc1ccc(Cn2c(SCC(=O)Nc3cccc(C)n3)nc3c2c(=O)n(C)c(=O)n3C)cc1
76. COC(=O)[C@@]1(Cc2ccc(OC)cc2)[C@H]2c3cc(C(=O)N4CCCC4)n(CCc4c[nH]c5ccc(O)cc45)c3C[C@H]2CN1C(=O)c1ccccc1
77. CNCCCNCc1ccc(SC)cc1
78. Cn1c(=O)c2c3c(sc2n2c(SCc4ccc5c(c4)OCO5)nnc12)COC(C)(C)C3
compound no. | 73 | 74 | 75 | 76 | 77 | 78
eIF4H FP inh | -2 | -2 | 9 | -2 | -7 | -8
PABP FP inh | -2 | 0 | 11 | -6 | 4 | -6

79. CC1=C(C(=O)OCC2CCCO2)C(c2ccc(C)o2)C2=C(CC(c3ccc(N(C)C)cc3)CC2=O)N1 (stereo unspecified)
80. FC(F)(F)c1cc(C(F)(F)F)c2ccc(N/N=C/c3cccc(Cl)c3)nc2n1
81. Cn1c(=O)c2c(nc(NCc3ccccc3)n2Cc2ccc(F)cc2)n(C)c1=O
82. CCCn1c(SCC(=O)Nc2sc(C)c(C)c2C(=O)OC)nc2c1c(=O)n(C)c(=O)n2C
83. CCn1c2ccccc2c2cc(NC(=O)Nc3ccc([N+](=O)[O-])cc3C)ccc21
84. Brc1cc2c(cc1/C=N/Nc1nc(N3CCCCC3)nc(N3CCCCC3)n1)OCO2
compound no. | 79 | 80 | 81 | 82 | 83 | 84
eIF4H FP inh | 0 | 15 | 3 | -5 | 0 | -2
PABP FP inh | 3 | 23 | -2 | 4 | 0 | 5

85. CCn1c(SCC(=O)Nc2ccccc2C(=O)OC)nc2c1c(=O)n(C)c(=O)n2C
86. Cc1ccc(OCc2nn3c(-c4n[nH]c5c4CCC5)nnc3s2)cc1
87. CCn1cc(C(=O)NCc2ccc3c(c2)OCO3)c(=O)c2ccc(C)nc21
88. CCc1ccc(C2NC(C(=O)O)CS2)cc1 (stereo unspecified)
89. CCCn1nnnc1SCC(=O)NNC(=O)C1CCCCC1
90. c1ccc(N(c2ccccc2)c2nc(N3CCOCC3)nc(N3CCOCC3)n2)cc1
compound no. | 85 | 86 | 87 | 88 | 89 | 90
eIF4H FP inh | 0 | 5 | -3 | 3 | 4 | -8
PABP FP inh | 2 | 3 | -6 | 19 | -6 | 4

91. Cc1ccc2c(c1)c1ncnc(N3CCC4(CC3)OCCO4)c1n2C
92. Cc1ccc(S(=O)(=O)N2CCN(c3nc(C)nc4sc5c(c34)CCC(C)C5)CC2)cc1 (stereo unspecified)
93. O=C1OCC2OC(O)C(O)C(O)C2OC(=O)c2cc(O)c(O)c(O)c2-c2c(O)c(O)c3oc(=O)c4c(c(O)c(O)c5oc(=O)c2c3c54)-c2c1cc(O)c(O)c2O (stereo unspecified)
94. Cn1c(=O)c2c(nc(N3CCOCC3)n2CC(=O)c2ccccc2)n(C)c1=O
95. Clc1ccc(-c2nn3c(-c4ccncc4)nnc3s2)c(Cl)c1
compound no. | 91 | 92 | 93 | 94 | 95
eIF4H FP inh | 5 | 5 | 83* | -10 | -7
PABP FP inh | 0 | -7 | 106* | -4 | 8
